TRPV1 PAM: human TRPV1 potentiation; Q8NER1; TRPV1-expressing cells, Fluo-8 calcium influx, capsaicin EC20 potentiation; host cell line not named in the record; control for the full effect not named in the record; potentiation, % at 8.33 µM; 0.02% of 320,000 active; AID 540277; active means potentiation above 80%; inconclusive means 30% to 80%; inactive means below 30%; also: 0% is about no effect
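Cells expressing TRPV1 were dye-loaded with Fluo-8 and read kinetically: 10 s baseline, 3 min after compound (agonist portion), then 2 min after EC20 capsaicin (allosteric enhancer portion). Calcium-bound dye fluorescence at 480/520 nm.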
gsp ag: activates gsp, the McCune-Albright syndrome mutation; Potency, µM (titrated, usually from 76.9 µM), for inactives: at the highest dose activation (cAMP increase), hits mostly activators; gsp mutant cells, cAMP HTRF, 30 min; control for the full effect not named in the record; 0.13% of 340,000 active; active = well fitted activation curve with a large enough effect; inconclusive = small, poorly fitted or top-dose-only effect, or another doubt; inactive = no such curve, though single readings can be large or run the other way; cell line not stated here;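 also: phosphodiesterase inhibitor Ro 20-1724 added with compounds to block cAMP breakdown; potency is read from the fitted curve at half-maximal effect; nearly all actives have a fitted effect of over 60% in size; about a fifth of the inactives were tested at one dose only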
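Cells in DMEM/10% FBS with G418 were pretreated with compounds in DMSO plus […] (300 uM stock) for 30 min at 37C. cAMP was measured by HTRF (cAMP-d2 plus anti-cAMP antibody-K) after 30 min at room temperature.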
Sfp inh: inhibitors of Bacillus subtilis Sfp phosphopantetheinyl transferase; Q9F4F7; Biochemical Sfp PPTase activity, qHTS; Potency, µM, for inactives: max response, negative = inhibition, actives largely listed as inhibitors; 3.5% of 310,000 active; AID 1490; active = well fitted inhibition curve with a large enough effect; inconclusive = small, poorly fitted or top-dose-only effect, or another doubt; inactive = no such curve, though single readings can be large or run the other way;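 also: the enzyme is Sfp with the accession as filed and its product quenches rhodamine fluorescence; potency is read from the fitted curve at half-maximal effect; 0% = enzyme reaction without inhibitor and -100% = no enzyme wells; top concentration of the series not given in the record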
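Buffer: 50 mM Hepes-Na pH 7.6, 10 mM MgCl2, 0.01% Nonidet P-40, 0.01% BSA. Enzyme 15 nM, pre-exposed to compound 15 min; substrates then added and fluorescence change tracked over 30 min.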
ClpP mod: qHTS Assay for Activators of ClpP | ATP-dependent Clp protease proteolytic subunit (Bacillus subtilis (strain 168)), P80244 | purified B. subtilis ClpP, FRET peptide cleavage, 20 min | Potency, µM (doses to about 57.5 µM), for inactives: at the highest dose activity change, negative = active | 1.9% of 340,000 active | AID 651965, 2013; active = well fitted falling curve with a large enough effect; inconclusive = small, poorly fitted or top-dose-only effect; inactive = no such curve, though single readings can be large or run the other way; also: potency is read from the fitted curve at half-maximal effect; the source files actives as falling curves though it sought activators and does not explain the sign; nearly all actives have a fitted effect of over 65% in size; many hits overshoot -100%
Target sequence (P80244 whole entry, looked up): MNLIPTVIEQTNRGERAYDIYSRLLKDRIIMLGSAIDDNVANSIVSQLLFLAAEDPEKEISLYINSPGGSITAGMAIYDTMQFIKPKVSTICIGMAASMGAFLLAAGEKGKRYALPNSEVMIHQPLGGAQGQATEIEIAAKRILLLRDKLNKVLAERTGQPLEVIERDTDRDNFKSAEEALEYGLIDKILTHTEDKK
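ClpP 10 microg/mL final, pH 8 Tris/KCl buffer with BSA, glycerol, Tween-20; compound pinned in; FRET-FV substrate; RT 20 min; Ex320/Em430; ΔFRET vs ADEP 5.8 microM, DMSO, no enzyme.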
D2 PAM: potentiates the human D2 dopamine receptor allosterically; P14416; DiscoveRx D2 beta-arrestin cells, luminescence, 90 min; 100% = 57 uM dopamine signal; potentiation, % (concentration not given with the values); 0.23% of 360,000 active; active = potentiation of 50% or more; inconclusive = 30% to 50%; inactive = 30% or less;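 also: compound concentration not given in the record; tested on top of an EC20 dose of dopamine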
Target sequence (P14416 whole entry, looked up): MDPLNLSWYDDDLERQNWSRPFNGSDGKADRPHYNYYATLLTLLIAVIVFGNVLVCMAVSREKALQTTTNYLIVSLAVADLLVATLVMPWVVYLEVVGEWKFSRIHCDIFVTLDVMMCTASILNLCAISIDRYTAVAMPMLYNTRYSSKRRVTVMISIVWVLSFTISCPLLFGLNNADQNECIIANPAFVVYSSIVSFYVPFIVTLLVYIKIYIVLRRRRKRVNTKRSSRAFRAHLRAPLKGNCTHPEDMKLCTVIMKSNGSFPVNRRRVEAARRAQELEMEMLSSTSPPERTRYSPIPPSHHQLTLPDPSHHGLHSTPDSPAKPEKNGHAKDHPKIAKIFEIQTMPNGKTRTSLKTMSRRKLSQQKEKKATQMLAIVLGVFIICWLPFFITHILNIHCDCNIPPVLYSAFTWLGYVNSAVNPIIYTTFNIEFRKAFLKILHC
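D2 cells co-treated with compound plus 50 nM dopamine (EC20) for 90 min at 37 deg C to detect potentiation. Beta-arrestin recruitment was read as enzyme-fragment luminescence after 1 h at ambient temperature. Full response was set by 57 uM dopamine.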
Menin-MLL FL inh: menin-MLL binding inhibition, fluorescein peptide | Fluorescence polarization, fluorescein-MLL peptide displacement from menin | FP activity change, % at 61.4 µM | 290,000 tested, under 10 active; inconclusive = falling polarisation curve, or a change in total fluorescence; inactive = total fluorescence flat and polarisation flat or rising; no compound was filed as active; the % refers to the polarisation; negative = inhibition;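 also: % of control where 0% means no effect; inhibitors lower the polarisation; unlabelled MLL peptide was the positive control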
gsp antagonist: gsp mutant antagonism; AID 624288; 0.4% of 340,000 active; Potency, µM (doses to about 76.9 µM), without a hit: top-dose activity change, negative = inhibition, most hits filed as inhibitors; gsp-mutant cells, cAMP HTRF, 30 min; control for the full effect not named in the record; active = falling curve of any shape with a large fitted effect; inconclusive = falling curve, mostly with a smaller effect; inactive = flat or rising curve; cell line not stated here;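 also: intracellular cAMP measured with PDE inhibitor Ro 20-1724 present during compound exposure; potency is read from the fitted curve at half-maximal effect; % is scaled to controls: 0 for no effect and ±100 for the full control effect; nearly all actives have a fitted effect of over 65% in size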
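Cells, 2000/well, grown 16–24 h in DMEM 10% FBS with 0.5 mg/ml G418, then compounds plus […] (300 uM addition stock), 30 min at 37C. cAMP read by HTRF (cAMP-d2 and anti-cAMP antibody-K in lysis buffer) after 30 min RT.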
Starred values were filed as active, the others as inactive; ? = inconclusive; / = no result given; & = joins results of further samples; [ ] = dose if it differs, or a comment.

SMILES	TRPV1 PAM	gsp ag	Sfp inh	ClpP mod	D2 PAM	Menin-MLL FL inh	gsp antagonist
CCCC(C(=O)NCCC(C)C)N(Cc1ccc(OC)cc1)C(=O)c1snc(C(N)=O)c1N (stereo unspecified)	-25.9	-18.4%	16.4%	-19.5%	-1.7	0.4	?
CC1(C)CC(=O)C=C(CN2C(=O)c3ccccc3C2=O)C1=O	-3.3	-1.0%	/	0.9%	-6.2	/	4.4%
Cc1ccc(CN2CCN(CC(=O)NCCCN3CCN(c4ccc(F)cc4)CC3)C2=O)cc1	8.7	13.7%	4.7%	-0.9%	-20.4	-0.1	5.3%
CC1(C)N=C(N)NC(Nc2ccc(Br)cc2)=N1	1.8	-17.8%	-19.6%	0.0%	-12.0	-3.1	7.3%
Cc1cc(C(=O)COC(=O)CC2Sc3ccccc3NC2=O)c(C)n1-c1ccc(Br)cc1 (stereo unspecified)	11.3	-19.5%	-6.2%	-26.2%	-10.6	3.8	-1.8%
CC(=O)n1cc([C@H]2C=C(C(=O)NCc3ccccc3)O[C@@H](OCc3ccc(CO)cc3)C2)c2ccccc21	10.0	/	2.1%	-1.1%	10.9	7.5	?
CC1(C)CC(=O)C(CCC(=O)c2ccccc2)C(C)(C)N1 (stereo unspecified)	12.3	14.8%	9.5%	0.9%	-11.3	1.5	10.0%
CCN(CC(=O)Nc1ccc(S(N)(=O)=O)cc1)S(=O)(=O)c1cc(C)ccc1OC	?	-5.1%	23.3%	0.7%	13.4	-0.9	-10.1%
O=C(Oc1ccc2c(c1)OCO2)C12CC3CC(CC(C3)C1)C2	4.1	-69.9%[inhibitor]	13.4%	-0.3%	-5.0	1.1	-1.4%
COc1ccc(CCNC(=O)COc2nncc3ccccc23)cc1	1.2	-0.9%[15.4 µM]	17.8%	/	5.9	-1.0	/
COc1ccccc1NC(=O)CSCC(=O)N1c2ccccc2CCc2ccccc21	1.1	-333.7%[inhibitor]	-13.1%	-1.6%	-6.7	4.6	-22.8%
COc1ccc(-c2nc3n(c(=O)c2C#N)CCS3)c(OC)c1	18.0	?	21.8%	-8.4%	-6.4	-0.5	-0.9%
COc1ccc2cc(C(=O)C3CCCN(C(=O)C4=NN(C)C(=O)CC4)C3)ccc2c1 (stereo unspecified)	-16.5	?	4.0%	3.9%	-3.7	/	-5.9%
COc1cc2c(cc1OC)CN(CCC(=O)c1ccc(Br)cc1)CC2	-4.1	22.6%[15.4 µM]	-7.7%	/	-15.2	-2.3	-10.7%
CC(=O)Nc1ccc(NC(=O)CSc2nnc(-c3ccco3)o2)cc1	4.1	?	10.4%	/	-3.9	-8.3	-18.2%
COc1ccc(NC(=O)COc2ccccc2Cc2ccccc2)cc1S(N)(=O)=O	4.5	-3.5%[15.4 µM]	1.1%	3.5%	-6.1	-0.5	?
CCN1CCN(CC(O)COCCOc2ccc(Br)cc2)CC1 (stereo unspecified)	-9.0	-0.2%	-5.4%	-0.2%	-11.5	-0.4	15.6%
N#CCCn1cc(/C=N/O)c(-c2ccccc2)n1	-3.8	10.3%	12.3%	-1.3%	-5.2	1.6	1.9%
O=C(c1cccnc1)C1CCCN(Cc2nc(Cc3ccccc3)no2)C1 (stereo unspecified)	0.5	-37.3%[15.4 µM]	-2.5%	/	-1.2	-0.3	-6.1%
CCCCN(C(=O)Nc1ccc(OCC)cc1)C1CCN(C(C)=O)CC1	11.7	-18.2%	4.8%	1.0%&0.1%	-2.3	-1.3	0.9%
Cc1cc(NC(=O)c2cccc(COc3ccc(Br)cc3)c2)no1	-2.9	0.2%	?	-1.4%	2.0	2.1	4.9%
Cc1ccc(S(=O)(=O)N=S(CCO)CCO)cc1	-0.8	9.8%	35.3%[activator]	-2.3%	-10.4	3.4	-10.7%
COc1ccc(CCN2CC(C(=O)NCc3ccco3)CC2=O)cc1OC (stereo unspecified)	4.6	-9.7%	?	-6.3%	-5.3	?	3.9%
Cc1nc(Nc2ccc(S(=O)(=O)N3CCCC3)cc2)c2nnn(Cc3ccccc3)c2n1	-29.0	-17.1%[15.4 µM]	21.3%	-1.6%	-3.4	0.7	?
Cc1cccc(Nc2nc(N)c([N+](=O)[O-])c(N3CCCC(C)C3)n2)c1 (stereo unspecified)	-9.7	3.4%	5.9%	-2.8%	-28.3	0.4	-10.7%
(list continues)
SMILES	TRPV1 PAM	gsp ag	Sfp inh	ClpP mod	D2 PAM	Menin-MLL FL inh	gsp antagonist
O=C(CN1C(=O)CC(c2ccccc2)Sc2ccccc21)NCC1CCCO1 (stereo unspecified)	9.9	?	6.1%	-0.5%	-1.2	-0.9	0.4%
O=C1NC2(CCCC2)Oc2ccccc21	-0.9	10.6%[15.4 µM]	15.1%	/	-4.9	-3.7	14.2%
CCCCCCCN1C(Nc2ccccc2)=NC[C@@H]1CC(C)C	-5.6	?	3.6%	-2.3%	-25.3	-0.4	8.3%
CC(=O)c1cccc(CN2CCC(C(=O)Nc3cccc(-c4ccn[nH]4)c3)CC2)c1	-3.6	2.0%	13.9%	-2.7%	-33.7	/	-2.1%
COc1ccc(-c2cc3cc(F)ccc3cn2)cc1	/	/	/	3.9%	-9.2	/	4.9%
CCC(=O)OCC(=O)Nc1cc(C)c(C)cc1[N+](=O)[O-]	-5.2	?	7.5%	0.0%	-1.8	-2.0	-0.4%
CCOC(=O)N1CCN(S(=O)(=O)N2CCCC(C(=O)NCc3cccc(OC)c3)C2)CC1 (stereo unspecified)	3.8	24.1%	6.5%	2.7%&1.7%	1.7	/	-6.5%
Cc1ccc(-c2nnn(CC(=O)N(c3cnc4ccccc4c3)C(C(=O)NC3CCCC3)c3ccncc3)n2)o1 (stereo unspecified)	13.0	17.2%[15.4 µM]	-1.6%	/	-5.0	4.2	-8.6%
CC(C)CC(Nc1ncnc2scc(-c3ccccc3)c12)C(=O)O (stereo unspecified)	-1.9	-43.6%[inhibitor]	18.6%	0.2%	-10.1	1.3	-25.3%
O=C(CN(c1ccccc1)S(=O)(=O)c1ccccc1)Nc1ccc(F)cc1	-11.5	-7.8%	15.2%	2.9%	-6.3	4.9	-4.1%
Cc1ccc(S(=O)(=O)/C(C#N)=C/c2c(N3CC(C)OC(C)C3)nc3ccccn3c2=O)cc1 (stereo unspecified)	-10.4	25.8%	-18.4%	-2.5%	-5.3	-0.3	-21.3%
COc1ccc2oc3ccccc3c(=O)c2c1	2.3	/	6.0%	3.9%	-2.5	3.6	8.0%
O=S(=O)(Nc1ncccn1)c1ccc(NC(=S)NCc2cccnc2)cc1	1.0	24.2%[15.4 µM]	-15.5%	/	0.0	-0.7	-5.5%
O=C1CCC(C(=O)N2CCN(c3ccccc3)CC2)CN1CC1CCCCC1 (stereo unspecified)	-10.1	12.7%	10.6%	-0.9%	-13.7	/	2.3%
CCOC(=O)C1=C(O)/C(=C/c2ccc(CNC(=O)C(=O)Nc3ccc(C)cc3)o2)N=C1C	-1.9	7.1%	39.8µM*	-1.7%	-8.0	?	9.5%
COc1ccc(-n2cc(CNCc3cccnc3)c(-c3cccc(F)c3)n2)cc1	-21.8	-9.7%[15.4 µM]	13.8%	/	-12.4	1.7	-16.6%
CC(C)(C)c1cc(C(=O)NNC(=O)c2ccc(Cl)cc2)no1	-26.3	3.6%[15.4 µM]	11.3%	/	-13.7	-1.3	-7.4%
COc1cc(CN2CCC(Cc3ccccc3)CC2)cc(OC)c1OC	-3.9	-20.4%	-19.7%	0.0%	-4.2	0.1	2.1%
CCCNC(=O)c1ccc(N2CCC3(CC2)CC(c2cccc(Br)c2)=NO3)c(NC(=O)c2ccc(Cl)c([N+](=O)[O-])c2)c1	-40.9	17.7%	/	-0.4%	-7.9	/	-5.6%
O=C(NCC1(c2ccccc2)CCCC1)c1ccc(Br)cc1	-16.2	23.1%	-8.4%	-2.1%	-1.2	-0.6	0.2%
Cc1ccc(/C=N\NC(=O)/C(=C\Nc2nccc(C)n2)NC(=O)c2ccccc2)cc1	2.4	3.8%[15.4 µM]	6.9%	/	-3.1	3.9	-1.8%
COc1ccc(CCNC(=O)Cn2c(=O)[nH]c3ccsc3c2=O)cc1OC	29.5	4.7%	7.3%	-5.2%	-9.1	-2.9	7.4%
CCOC(=O)C(Cc1ccccc1)C(=O)NCc1ccccc1 (stereo unspecified)	0.1	-21.2%[15.4 µM]	-5.4%	-2.7%	-3.5	6.3	2.5%
COCCN(Cc1nc2ccccc2c(=O)[nH]1)C(=O)COc1cccc(C(C)=O)c1	-6.8	15.2%	/	-0.7%	-2.8	/	-7.6%
CCOc1ccc(-c2nc(CSCC(=O)N3CCN(C(=O)c4ccco4)CC3)c(C)o2)cc1	/	-30.3%[inhibitor]	-12.3%	-10.7%	-0.2	5.8	-5.6%
(continued)
SMILES	TRPV1 PAM	gsp ag	Sfp inh	ClpP mod	D2 PAM	Menin-MLL FL inh	gsp antagonist
CN(Cc1ccccc1)C(=O)c1ccc(NC(=O)Cc2cccc([N+](=O)[O-])c2)cc1	/	-7.0%	/	-1.3%	-5.5	/	-9.5%
COc1ccc2[nH]c3c(c2c1)CNCC3	/	-36.0%[inhibitor]	/	-14.3%	-15.8	/	/
Cn1cnnc1SCC(=O)Nc1ccc2nc(SCc3ccccc3)sc2c1	23.6	-48.5%[inhibitor]	-5.4%	-6.2%	6.6	?	-8.4%[15.4 µM]
Cn1c(=O)c2ncn(CC(=O)Nc3ccc(N4CCOCC4)cc3)c2n(C)c1=O	-21.5	?	-11.9%	0.0%	-1.1	1.1	10.9%
C/C(=N\OCC(=O)Nc1ccccc1C(C)(C)C)c1ccc2c(c1)OCCO2	-1.7	-19.6%	-7.0%	0.9%	-9.5	0.8	-11.0%
O=[N+]([O-])c1cc2c(cc1/C=N/n1c(-c3ccccn3)n[nH]c1=S)OCO2	-1.7	?	22.4µM*	0.3%	-6.8	2.6	21.1%
Cc1cc(C(C)(C)C)ccc1OCCCCN1CCCC1	4.4	0.3%	4.7%	4.3%	-23.4	-2.3	6.9%
COc1ccc(C(=O)Nc2nc(CC(=O)NCc3ccc(F)cc3)cs2)cc1	8.6	22.0%	/	69.4%	27.0	/	10.9%
CC(C)n1c(CN2CCN(C)CC2)nc2c1c(=O)n(C)c(=O)n2C	/	9.2%	/	-1.4%	-1.0	/	15.7%

Assay outcomes (PubChem)
